ALR H2O2 inh: inhibitors of human ALR sulfhydryl oxidase, primary screen, biochemical, H2O2 detection, HRP-luminol luminescence, single point; FAD-linked sulfhydryl oxidase ALR (Homo sapiens), P55789; purified ALR, DTT oxidation; inhibition, % (test concentration not listed); 3.8% of 290,000 active;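 active means mean and each replicate at 75% or more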;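 further: stock transfer was 7.5 nL into about 7.5 µL; 0% = neutral wells and 100% = wells with inactivated enzyme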
Target sequence (P55789 whole entry, looked up): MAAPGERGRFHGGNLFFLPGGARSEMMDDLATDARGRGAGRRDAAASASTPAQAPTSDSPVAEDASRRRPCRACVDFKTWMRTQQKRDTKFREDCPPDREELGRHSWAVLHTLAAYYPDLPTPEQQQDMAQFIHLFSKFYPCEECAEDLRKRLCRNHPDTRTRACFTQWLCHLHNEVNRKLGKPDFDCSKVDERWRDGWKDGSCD
UCH37 inh: inhibitors of human UCH37 deubiquitinase, primary screen, biochemical, Ub-AMC cleavage, fluorescence | AID 588478, 2011 | 0.33% of 330,000 active | inhibition, % (no concentration beside the values) | Ubiquitin carboxyl-terminal hydrolase isozyme L5 (Homo sapiens), Q9Y5K5 | purified proteasome/UCH37;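 active means mean of two replicates above 20%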;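 further: 0% = compound-free wells with enzyme and 100% = wells lacking proteasome; stock transfer was 100 nL into about 20 µL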
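Material: Human UCH37 enzyme supplied as purified proteasome complex | Schedule: 30 min preincubation with enzyme, 25 min cleavage at room temperature | Detection: AMC fluorescence 355/460 nm | Measure: % inhibition of Ub-AMC cleavage fluorescence | Controls: Wells without proteasome as full block, compound-free enzyme plus substrate as uninhibited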
FGF22 binding: binders of human FGF22 protein, primary screen, FGF22 synaptogenesis inhibitor project, biophysical, thermal shift, single point | Fibroblast growth factor 22 (Homo sapiens), Q9HCT0 | recombinant FGF22 thermal shift, SYPRO orange fluorescence; percent of sucrose octasulfate shift, DMSO zero | calls only at 9.99 µM | 1.5% of 340,000 active;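 active means melting point raised past a set limit in the mean and every replicate; three in four hits are not shown here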
Target sequence (Q9HCT0 whole entry, looked up): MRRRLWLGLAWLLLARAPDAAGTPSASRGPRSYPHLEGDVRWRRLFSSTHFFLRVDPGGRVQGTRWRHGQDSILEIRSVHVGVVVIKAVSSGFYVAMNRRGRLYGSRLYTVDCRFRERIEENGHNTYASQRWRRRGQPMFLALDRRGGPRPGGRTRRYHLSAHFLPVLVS
HNF4A DNA FP: change in binding of human HNF4A to DNA, primary screen, biochemical, fluorescence polarization, FITC-DNA. Hepatocyte nuclear factor 4-alpha (Homo sapiens), P41235. 1 h. activity change, % at 10 µM. 0.3% of 360,000 active. AID 1224865, 2016; in the data active means activity change above about 30%, passing the limit was not always enough;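 further: controls were the assay level and a saturating level of protein; the project sought stronger binding though the title names inhibitors; some compounds called inactive have numbers as strong as hits; positive values seem to mean higher polarization but the record does not say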
Target sequence (P41235 whole entry, looked up): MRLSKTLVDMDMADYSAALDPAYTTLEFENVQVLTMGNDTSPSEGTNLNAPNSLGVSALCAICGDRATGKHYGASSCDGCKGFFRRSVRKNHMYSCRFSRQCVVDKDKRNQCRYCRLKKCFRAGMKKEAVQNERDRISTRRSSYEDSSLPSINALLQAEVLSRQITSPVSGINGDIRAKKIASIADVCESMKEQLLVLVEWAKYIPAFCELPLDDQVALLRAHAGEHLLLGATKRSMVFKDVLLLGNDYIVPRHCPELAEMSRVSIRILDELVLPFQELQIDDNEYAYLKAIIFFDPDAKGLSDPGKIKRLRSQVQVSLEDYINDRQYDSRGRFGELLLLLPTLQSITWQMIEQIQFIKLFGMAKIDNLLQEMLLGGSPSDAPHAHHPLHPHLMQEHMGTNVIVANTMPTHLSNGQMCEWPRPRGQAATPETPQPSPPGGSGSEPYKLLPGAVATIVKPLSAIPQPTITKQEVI
B2AR ag: beta2AR agonists driving receptor internalization, primary screen, cell-based, FAP fluorogen, flow cytometry | response, % (test concentration not listed) | Beta-2 adrenergic receptor (Homo sapiens), P07550 | 0.43% of 340,000 active | Am2.2-beta2AR cells; reference of the scale not given here;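 active means response above a set limit, near 3 SD of response in nonfluorescent compounds, cut at about 42% in these data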;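 further: stock transfer was 100 nL into about 11 µL; a reference agonist was the positive control; negative values mostly stem from fluorescent compounds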
LANA-H2A inh: blockers of LANA interaction with H2A/H2B – biochemical, FP readout, HTS, primary screen. 0.6% of 320,000 active. inhibition, % (test concentration not listed). AID 2629, 2010. Protein LANA1 (Human herpesvirus 8 type P (isolate GK18)), Q9QR71. cell-free LANA-H2A/H2B peptide, fluorescence polarization; in the data active means inhibition mostly above about 10%, no sharp cut-off; inactive means mostly below about 6.7%;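 further: stock transfer was 7.5 nL into about 10 µL; 0% = median of vehicle wells and 100% = median of positive control wells; one replicate is shown; the record names a cut of 25% in any replicate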
Ecoli growth: E. coli growth inhibition, primary screen, OD600; Escherichia coli growth, 23 h; active compounds read low; OD600 absorbance (no concentration beside the values); 0.21% of 330,000 active; AID 1053175, 2014;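 active means OD600 absorbance below the run mean of sample wells minus 3.6 SD, in any replicate, cut at about 0.56 in these data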;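 further: stock transfer was 300 nL into about 60 µL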
Active calls of the source: *; i = inactive; x = no result given. Some of the compounds tested; count on the stated rates, not on these rows.

Results follow in this order: ALR H2O2 inh	LANA-H2A inh	FGF22 binding	HNF4A DNA FP	B2AR ag	Ecoli growth	UCH37 inh
(1) COc1cc(C(Nc2ccc(S(=O)(=O)NCC3CCCO3)cc2)C(=O)NC(C)(C)C)cc(OC)c1OC (stereo unspecified)
 : -2.0	-13.6	i	-1.9	-3.8	0.713	2.1
(2) O=C(Cn1cccc1)N1CCN(C(c2ccccc2)c2ccccc2)CC1
 : -2.5	3.2	x	3.4	-2.6	0.638	-0.3
(3) O=C(CSc1ccccc1)Nc1nnc(C2CC2)s1
 : -1.4	-2.5	i	-0.7	-4.2	0.688	-0.5
(4) O=C(CNC(=O)c1ccc(S(=O)(=O)N2CCCC2)cc1)N/N=C/c1ccc(Cl)cc1
 : -4.0	-1.4	i	2.3	-4.7	x	x
(5) CCn1c(CCC(=O)Nc2cc(F)ccc2C)nc2cc(S(=O)(=O)N(C)C)ccc21
 : -6.1	1.2	x	4.1	3.8	0.722	0.7
(6) COc1ccc(CNC(=O)C(CCSC)NS(=O)(=O)c2ccccc2F)cc1 (stereo unspecified)
 : x	2.5	i	0.7	2.1	0.673	5.0
(7) CSc1nc2nc(-c3cccc(C(F)(F)F)c3)ccn2n1
 : x	-5.9	i	1.1	-2.0	0.733	-1.2
(8) Cc1ccsc1-c1nc(-c2ccccc2)c(-c2ccccc2)[nH]1
 : 2.0	2.2	x	-0.5	-3.7	0.736	-22.4
(9) Cc1ccc(NS(=O)(=O)c2cccc(C(=O)NCCCN3CCOCC3)c2)cc1
 : -4.5	-0.8	i	3.8	-3.2	0.626	2.4
(10) CSc1ccccc1C(=O)NC1CCCN(c2ccc(C(F)(F)F)cn2)C1 (stereo unspecified)
 : -5.7	-1.2	i	3.3	-6.4	0.688	3.7
(11) O=C(NCCCn1ccnc1)c1cn(-c2ccccc2)nc1-c1ccc(F)cc1
 : -4.4	3.6	i	-1.0	-25.5	0.673	3.7
(12) COc1ccc(N2C3=C(CC4=C2CCCC4=O)C(=O)CCC3)cc1
 : 0.4	-0.1	x	-10.9	6.9	0.717	-257.5
(13) C/C(=N\OCc1cccc(C(=O)O)c1)c1ccc(Cl)cc1
 : 4.1	-0.3	i	4.0	-0.1	x	x
(14) CCc1ccc2c(c1)[C@]1(C(=O)N2)[C@@H]2C(=O)N(Cc3ccccc3)C(=O)[C@@H]2[C@@H]2CCCN21
 : -5.9	-1.8	x	6.7	16.5	0.668	0.8
(15) COc1cccc(NC(=S)N2CCc3cc(OC)c(OC)cc3C2COc2ccc3c(C)cc(=O)oc3c2)c1 (stereo unspecified)
 : -4.5	-0.6	x	2.1	2.0	0.71	-19.0
(16) COc1ccc(-c2cn3cccnc3n2)cc1NC(=O)c1cccs1
 : -0.2	1.0	x	3.9	-21.4	0.689	-75.3
(17) O=C(Nc1cccc(S(=O)(=O)N2CCCCC2)c1)C1COc2ccccc2O1 (stereo unspecified)
 : -8.5	7.3	i	-3.5	-1.0	0.649	7.2
(18) CC(=O)c1c(C)[nH]c(C(=O)COC(=O)C2(C)CC2(Cl)Cl)c1C (stereo unspecified)
 : 0.7	-0.2	i	0.0	-3.4	0.696	2.8
(19) O=C(Cn1cc2c(n1)CCCC2)N1CCCc2ccccc21
 : 15.3	0.2	i	2.5	2.2	0.746	4.7
(20) Cc1ccc(C(=O)/C=C/c2cc(C#N)n(C)c2C)cc1
 : -7.1	-4.5	i	-0.7	-4.8	0.696	2.1
(21) CCC1(c2ccc(F)cc2)NC(=O)N(CC(=O)N2CCN(S(=O)(=O)c3ccc(Cl)cc3)CC2)C1=O (stereo unspecified)
 : x	0.6	i	-2.5	-7.2	0.69	0.6
(22) Cc1ccc(S(=O)(=O)N2CCN(CC(O)c3ccccc3)CC2)cc1 (stereo unspecified)
 : -6.1	-1.2	i	-6.5	-6.5	0.684	-0.3
(23) COCCN(C(=O)Cc1coc2cc(C)c(C)cc12)c1c(N)n(Cc2ccccc2)c(=O)[nH]c1=O
 : -7.6	-0.5	i	0.5	3.4	0.643	1.2
(24) Cn1c(SCC(=O)Nc2ccc(Br)cc2)nc(O)cc1=O
 : 99.0*	1.6	i	3.8	3.3	0.691	13.1
(25) CCc1ccccc1NC(=O)c1ccccc1Sc1ccc([N+](=O)[O-])cc1Cl
 : -3.2	2.4	i	-1.4	5.6	0.687	1.6
(26) C=CCN(CC(=O)NC1CCCC1)C(=O)C(=O)Nc1ccc2c(c1)OCCO2
 : -1.9	-0.4	i	2.8	-1.4	0.665	-0.3
(27) O=C(Nc1ccc(Cl)cc1)C1CCCN(c2cnccn2)C1 (stereo unspecified)
 : -8.2	-2.4	i	-4.0	0.0	0.702	-17.2
(28) CCc1ccc(CCC(=O)Nc2nc(CC(C)=O)ns2)o1
 : -2.0	6.3	x	-0.8	3.3	0.658	-0.3
(29) COc1ccc2nc(NC(=O)c3ccccc3[N+](=O)[O-])sc2c1
 : -3.9	0.4	i	-0.4	-7.0	0.685	3.2
(30) Fc1ccc(NC(=S)NN2CCOCC2)cc1Cl
 : 34.0	-6.7	i	-2.3	-5.7	0.644	1.9
(31) COc1ccccc1C(=O)N1CCCN(C(=O)c2ccccc2OC)CC1
 : -5.1	-0.7	x	-0.8	-1.2	0.71	5.7
(32) O=C(Nc1ccc2c(c1)OCO2)c1ccc(Cl)c(S(=O)(=O)N2CCOCC2)c1
 : -11.2	1.1	i	-3.2	-5.8	0.706	4.9
(33) CN1/C(=C\C(=S)NC(=O)c2ccc([N+](=O)[O-])cc2)C(C)(C)c2ccccc21
 : -3.8	-6.2	x	2.9	1.5	0.773	5.0
(34) C/C(=N\Nc1nnc(-c2ccccc2)c(-c2ccccc2)n1)c1cccc([N+](=O)[O-])c1
 : -3.1	0.5	x	-3.4	4.1	x	x
(35) COc1ccc(-n2cc(-c3ccccc3)nc2SC)cc1
 : -9.8	1.3	i	0.2	-12.3	0.704	4.7
(36) CCn1cc(NC(=O)CCl)c(C)n1
 : -4.7	1.6	x	x	x	0.67	0.3
(37) Nc1c(C(=O)c2ccccc2)sc(Nc2ccccc2)c1S(=O)(=O)c1ccccc1
 : -4.4	-0.2	x	2.2	-4.0	0.8	-6.8
(38) NC(=O)c1cc(S(=O)(=O)N2CCN(c3cccc(Cl)c3)CC2)cs1
 : -2.9	4.9	i	0.4	4.6	0.684	3.0
(39) CCOC(=O)c1c(NC(C)=O)sc2c(OC)cccc12
 : x	4.0	x	2.8	10.4	0.71	-3.6
(40) Cc1ccc(NC(=O)CS(=O)CC(=O)N(c2ccccc2F)C(C)C(=O)NC2CCCC2)cc1 (stereo unspecified)
 : -4.7	0.7	i	3.2	-1.6	0.707	5.8
(41) CC1CCN(c2nc3ccccc3nc2C(C#N)C(=O)NC2CCCCC2)CC1 (stereo unspecified)
 : -4.4	4.0	x	x	x	0.712	-20.4
(42) COc1ccc(-c2noc(N(C)CC(=O)Nc3cccc(C(F)(F)F)c3)n2)cc1
 : -17.2	0.9	x	-0.6	-3.0	0.71	1.0
(43) O=C(CSc1cccc[n+]1[O-])Nc1ccc([N+](=O)[O-])cc1Cl
 : 2.1	3.4	x	-0.3	-3.3	0.665	3.2
(44) COC(=O)c1sccc1NS(=O)(=O)c1ccccc1[N+](=O)[O-]
 : x	x	x	1.5	8.9	0.709	3.4
(45) CC1(NC(=O)CCNC(=O)c2ccc(C(C)(C)C)cc2)CCS(=O)(=O)C1 (stereo unspecified)
 : -0.1	2.7	i	3.9	-10.4	0.695	5.4
(46) CNC(=S)Nc1cc(OC)ccc1OC
 : -15.5	3.6	i	-2.0	-6.8	0.706	1.7
(47) CC(C)(C)NC(=O)C(OC(=O)Cn1nnc(-c2ccc(F)cc2)n1)c1ccncc1 (stereo unspecified)
 : 1.6	3.9	x	4.9	1.7	0.699	1.4
(48) COCC(C)NC(=O)NC(=O)c1ccc(Cl)cc1 (stereo unspecified)
 : -5.7	-0.7	x	1.9	12.5	0.587	2.9
(49) COc1ccc(C)cc1NC(=O)CSCc1ccccc1C
 : 9.8	-5.2	i	-2.6	0.8	0.628	1.4
(50) CC(=O)c1ccc(N2CCN(CC(O)c3ccccc3)CC2)cc1 (stereo unspecified)
 : x	3.3	i	-1.7	-7.7	0.706	4.0
(51) O=C(NCc1ccc(F)cc1)C(=O)NCC1OCCN1S(=O)(=O)c1cccs1 (stereo unspecified)
 : -5.1	-11.2	i	7.4	1.1	0.681	1.4
(52) Cc1ccccc1NC(=O)C(Cl)=C(Cl)Cl
 : 10.8	-4.3	i	3.5	3.5	0.708	-0.6
(53) CC(C)C[C@H]1CNC(=S)N1CC1CCCN1C[C@H](CC(C)C)N1C[C@H](CC(C)C)N(CC2CCCCCC2)C1=S (stereo partly specified)
 : x	x	i	0.3	-5.7	x	x
(54) C/C=C/C(=O)Nc1cccc(C(F)(F)F)c1
 : -18.0	2.4	i	2.8	-1.9	0.718	0.7
(55) Cc1ccc(S(=O)(=O)N2CCOCC2)cc1C(=O)N1CCCC1
 : -6.6	-2.4	i	-0.7	2.1	0.661	0.9
(56) O=C(O)c1cccc(N2C(=O)c3cccc4c(Cl)ccc(c34)C2=O)c1
 : -2.9	2.0	i	-0.7	-3.6	x	x
(57) O=C(N/N=C/c1ccco1)c1csc2c1CCCC2
 : -6.6	2.9	i	1.6	-2.7	x	x
(58) O=C1N/C(=N\S(=O)(=O)Cc2ccccc2)S/C1=C/c1cccc([N+](=O)[O-])c1
 : 23.6	11.7	i	1.8	-1.0	x	x
(59) O=C(Nc1cccnc1)c1cnc2ccccc2n1
 : -2.5	-0.2	x	-2.5	-4.5	0.691	4.4
(60) Cn1c(C(=O)NCc2ccccc2)cc2oc3ccccc3c21
 : -4.9	0.8	x	0.9	-17.6	0.671	-19.1

Following part:
Results follow in this order: ALR H2O2 inh	LANA-H2A inh	FGF22 binding	HNF4A DNA FP	B2AR ag	Ecoli growth	UCH37 inh
(61) O=C(Cn1nnc(-c2ccc(F)cc2)n1)N1CCCCC1
 : 1.6	3.0	i	0.5	0.0	0.709	3.3
(62) O=[N+]([O-])c1ccc(O)c(/C=N/n2c(-c3ccccc3)n[nH]c2=S)c1
 : 92.8*	1.6	i	-0.6	2.9	x	x
(63) CCC(=O)N(Cc1cc2cc(OC)ccc2[nH]c1=O)c1ccccc1C
 : x	3.0	x	4.4	-5.8	0.728	-81.2
(64) CC1CCN(c2c([N+](=O)[O-])c(=O)n(-c3ccccc3)c3ccccc23)CC1
 : -18.0	2.8	x	-2.2	-0.2	0.735	1.3
(65) CCN(CC)C(=O)C1CCCN(c2ncnc3c2cnn3-c2ccc(Cl)cc2)C1 (stereo unspecified)
 : x	3.1	i	-2.4	-9.9	0.699	6.9
(66) Cc1ccc(/C=C/C(=O)c2ccccc(=O)c2O)cc1C
 : 95.7*	5.7	i	0.9	9.9	0.689	0.8
(67) N#CCC(=O)N/N=C/c1cn(Cc2ccc3ccccc3c2)c2ccccc12
 : -2.6	-2.4	i	4.2	-4.5	x	x
(68) CCNC(=O)Nc1cc(S(=O)(=O)Nc2ccc(OC)cc2)ccc1N1CCOCC1
 : 5.5	-397.9	x	7.2	-2.7	0.643	5.6
(69) CN1CCN(C(=O)c2ccc3c(Cl)c4c(nc3c2)CCCC4)CC1
 : -0.5	-2.2	i	0.4	-2.6	0.663	1.0
(70) COc1ccc(Nc2nnc(-c3ccc(C)cc3)c3ccccc23)cc1C(=O)N1CCCCC1
 : -1.0	-2.9	i	0.9	20.8	0.667	-10.8
(71) CCC(=O)N/C=C/n1cnc2cc(C(F)(F)F)ccc21
 : -9.7	0.2	x	-3.0	-1.7	0.72	2.6
(72) CCn1c2ccccc2c2cc(NC(=O)COC(=O)c3cc(OC)c(OC)cc3OC)ccc21
 : -3.8	-2.6	x	0.9	17.9	0.722	2.3

From PubChem
